Vaccinia mCherry = inhibitors of vaccinia virus infection (mCherry reporter signal); actives 0.63% (n = 310,000); Potency, µM (doses to about 36.5 µM), inactives show top-dose activity change, negative = inhibition, hits mostly inhibitors; Vaccinia virus mCherry reporter infection, fluorescence; about a quarter of the inactives have no number; AID 720579; active = well fitted inhibition curve with a large enough effect; inconclusive = small, poorly fitted or top-dose-only effect; inactive = no such curve, though single readings can be large or run the other way; tested in A549 cells; further: nearly all actives have a fitted effect of over 35% in size; inactives centre near -10
VACV Venus inh = vaccinia inhibition (Venus reporter); Vaccinia virus Venus reporter expression, fluorescence; Potency, µM (top dose mostly 36.5 µM), inactives show top-dose activity change, negative = inhibition, actives largely listed as inhibitors; actives 0.46% (n = 330,000); AID 720580; active means well fitted inhibition curve with a large enough effect; inconclusive means small, poorly fitted or top-dose-only effect; inactive means no such curve, though single readings can be large or run the other way; tested in A549 cells; further: nearly all actives have a fitted effect of over 30% in size; inactives centre near -10
Numbers without * were called inactive; i = inactive; ? = inconclusive; · = not tested or not shown; [ ] = another dose, or the depositor's remark. On the % scale 0 is the no-effect control and ±100 the full control effect; potency means the concentration at half of the fitted maximal effect.

Structure	Vaccinia mCherry	VACV Venus inh
Cn1nc(C(=O)N2CCCCC2)c2c1-c1ccccc1S(=O)(=O)C2	11%[7.34 µM]	10%[7.34 µM]
CCN1C(=O)N[C@@H](CCc2ccccc2)[C@H](C(C)=O)[C@H]1C	4%	-6%
CC(=O)N1CCN(c2ccc(NCc3ccc4c(c3)OCO4)cc2)CC1	i	-7%
O=C(NCc1cccc(F)c1F)C1CCC(=O)N(C2CCCCCC2)C1 (stereo unspecified)	i	-17%
C=CCC(=O)N1CCCC(CCC(=O)NCc2ccccc2F)C1 (stereo unspecified)	-3%	6%
O=C(CNC(=O)c1ccccc1F)OCc1cc(=O)n2nc(C3CCCCC3)sc2n1	-1%	-9%
Cc1nn(Cc2ccc(Cl)cc2)c(C)c1NC(=O)c1ccc([N+](=O)[O-])cc1	-8%	-18%
CCCS(=O)(=O)NC(=O)C1(C)CCCN(C(=O)c2ccc(SC(F)(F)F)cc2)C1 (stereo unspecified)	6%	2%
COc1ccc(OCC(=O)OCC(=O)NCc2ccc(F)cc2)cc1	-1%	-20%
CN1C(C(=O)Nc2ccccn2)=C(O)c2sc(Cl)cc2S1(=O)=O	-13%	-7%
C[C@@H]1CN([C@H](C)CO)C(=O)CCCn2nncc2CO[C@H]1CN(C)Cc1ccc2c(c1)OCCO2	-14%	-10%
CC(C)c1ccc(CNn2cnnc2)cc1	i	-10%

(list continues)
Structure	Vaccinia mCherry	VACV Venus inh
Cc1cc(C)c(NC(=O)c2ccc3nccnc3c2)c(C)c1	-5%	7%
CCc1ccc(S(=O)(=O)c2nnn3c2nc(NC(C)C)c2sccc23)cc1	-13%	-22%
CC(C)C(NC(=O)c1ccc(C(C)(C)C)cc1)C(=O)N1CCCC1 (stereo unspecified)	i	0%
COc1ccc(C2CC(=O)C3=C(C2)Nc2ccccc2N(C(=O)CCC(=O)O)C3c2ccc(F)cc2)cc1 (stereo unspecified)	i[7.34 µM]	0%[7.34 µM]
O=C(CCl)NCc1cc(-c2ccc(Cl)cc2)no1	10µM*	?
COC(=O)C(C)(C)ONC(=O)Nc1ccccc1[N+](=O)[O-]	-3%	-4%
COc1ccc(-n2c(SCC(=O)N3CCCCC3)nc3ccccc3c2=O)cc1	i	2%
CC1CCCCC1NC(=O)/C(C#N)=C/c1ccccc1F (stereo unspecified)	-14%	-2%
CCOC(=O)c1c(NC(=O)Cn2nc(C(=O)O)c3ccccc3c2=O)sc(C)c1C	-25%	1%
Cc1ccccc1NC(=S)Nc1ccc2cn[nH]c2c1	-13%	-1%
Cc1cc(C(=O)COC(=O)C2CC2)c(C)n1-c1ccc(F)cc1	-15%	-1%
CC(C)CC(=O)Nc1nnc(S(=O)(=O)N(CC(C)C)c2ccccc2)s1	-25%	-24%

Further results follow:
Structure	Vaccinia mCherry	VACV Venus inh
S=c1[nH]nc(Cn2nnc3ccccc32)n1-c1ccccc1	-1%	0%
CCOc1ccc(NC(=O)NC2CCS(=O)(=O)C2)cc1 (stereo unspecified)	14%	0%
COC(=O)c1[nH]c(C)c(/C(O)=C2\C(=O)C(=O)N(CCN(C)C)C2c2ccco2)c1C (stereo unspecified)	-10%	-8%
CCOC(=O)/C(C#N)=C1/SC(CC)C(=O)N1c1ccc(C)cc1 (stereo unspecified)	·	-13%
OC(c1cccnc1)c1cccs1 (stereo unspecified)	-15%	-1%
Cc1ccc(C(=O)C[n+]2ccc3ccccc3c2)cc1	?	-4%
O=C1OC(c2ccccc2)Cc2cc(C(=O)N3CCN(c4ccc(F)cc4)CC3)ccc21 (stereo unspecified)	-12%	-22%
COc1cccc2cc(C(=O)OCC(=O)N3CC(C)OC(C)C3)c(=O)oc12 (stereo unspecified)	-14%	1%
CNC(=S)NNC(=O)c1c(C)nc2cc(C)ccn12	1%	12%
CCOC(=O)CSc1nc2cc3c(cc2c(=O)n1Cc1ccc(C(=O)NCCc2ccc(OC)c(OC)c2)cc1)OCO3	-8%	-10%
CCc1ccc(NC(=O)COC(=O)c2nc3nc(C)cc(C)n3n2)cc1	-12%	-12%
O=c1c2ccccc2n(CC(O)CN2CCOCC2)c2ccccc12 (stereo unspecified)	-4%	-7%

Continued.
Every second line gives: Vaccinia mCherry	VACV Venus inh
CN(CC(=O)Nc1cccc(F)c1)C(=O)CCC1CCCCC1
  -13%	-9%
Cc1ccc(S(=O)(=O)NCCCCCC(=O)Nc2ccccc2C)cc1
  -14%	-9%
CCCC1CC(C)(/C(C)=N\NC(N)=S)OC1=O (stereo unspecified)
  i	-11%
COc1ccc(-n2cnnc2SCC(=O)NC2CCS(=O)(=O)C2)cc1 (stereo unspecified)
  ·	-9%
COc1cc2c(NC3CCN(C)CC3)nc(N3CCN(C)CC3)nc2cc1OCCOCCN(C)C
  -20%	-19%
Cc1cc(C)c(S(=O)(=O)Cc2ccccc2)c(=O)[nH]1
  -9%	-9%
COc1cc(/C=N/NC(=S)NC2CC3CC2C2C=CCC32)ccc1O (stereo unspecified)
  -34%	?
CCC12CN3CC(C)(CN(C1)C3c1c(C)n(C)c3ccccc13)C2=O (stereo unspecified)
  -2%	0%
CCCCN(C(=O)C1CC(=O)N(Cc2ccc(C)cc2)C1)c1c(N)n(CC(C)C)c(=O)[nH]c1=O (stereo unspecified)
  -4%	-5%
O=[N+]([O-])c1ccc(N=Nc2c(Cl)cc(O)cc2Cl)cc1
  ?	?
Cc1ccccc1NC(=O)Cn1c(C)nc2ccc(NC(=O)C3CC3)cc2c1=O
  i	-10%
COc1cccc2sc(NC(=O)CS(=O)(=O)c3ccc(C)cc3)nc12
  -19%	-8%
COCCN(C(=O)CSc1nc2ccccc2c(=O)n1CC(C)C)c1c(N)n(Cc2ccccc2)c(=O)[nH]c1=O
  -29%	-22%
O=C(Nc1ccccc1C(=O)O)C1=NN=CC1
  -10%	8%
Cc1ccc(NC(=O)Cn2nnc(C(=O)NCCc3ccccc3)c2N)c(C)c1
  i[7.34 µM]	0%[7.34 µM]

Complete entries, quoted from the list. Order of screens: Vaccinia mCherry	VACV Venus inh
CN1C(C(=O)Nc2ccccn2)=C(O)c2sc(Cl)cc2S1(=O)=O is listed as -13%	-7%
CCOc1ccc(NC(=O)NC2CCS(=O)(=O)C2)cc1 (stereo unspecified) is listed as 14%	0%
Cc1ccc(C(=O)C[n+]2ccc3ccccc3c2)cc1 is listed as ?	-4%

Rewritten as labelled records: entries from further up.
SMILES: Cc1ccc(NC(=O)Cn2nnc(C(=O)NCCc3ccccc3)c2N)c(C)c1
  Vaccinia mCherry = i[7.34 µM]
  VACV Venus inh = 0%[7.34 µM]

SMILES: O=[N+]([O-])c1ccc(N=Nc2c(Cl)cc(O)cc2Cl)cc1
  Vaccinia mCherry = ?
  VACV Venus inh = ?

New compounds follow
Every second line gives: Vaccinia mCherry	VACV Venus inh
Cc1cc(C)c(S(=O)(=O)N2CCCCC2)c(C)c1N(C)S(=O)(=O)c1ccc(Cl)cc1
  -25%	-9%
CN(C)c1cccc(C(=O)N2CCC(n3nccc3NC(=O)C3CCOC3)CC2)c1 (stereo unspecified)
  i	0%
Cc1cc(F)ccc1Oc1cc(NN2CCCCC2)c([N+](=O)[O-])cc1[N+](=O)[O-]
  ?	-13%
Oc1ccccc1N1CCN(Cc2ncc(-c3ccccc3)o2)CC1
  -23%	-10%
O=C(CSc1nc2c(oc3ccccc32)c(=O)n1Cc1ccco1)Nc1cccc(Cl)c1
  -12%	-10%
CC(C)c1cc(Cn2c3ccccc3c(=O)n2C(C)Cn2cc(-c3ccccc3)nn2)on1 (stereo unspecified)
  9%	-2%
Cc1c(C2(c3c(C)n(C)n(-c4ccccc4)c3=O)C(=O)Nc3ccc(F)cc32)c(=O)n(-c2ccccc2)n1C
  ·	-20%
Cn1nc(C(=O)Nc2cc(F)ccc2F)c2c1-c1ccccc1SC2
  -16%	-10%
Cc1ccc(NC(=O)Cn2c(=O)n(Cc3ccc(F)cc3)c(=O)c3cccnc32)cc1C
  -19%	-20%
COc1ccc(-c2cc(=O)c3ccccc3o2)cc1OC
  i	0%
CCOC(=O)N1C2=NC(C(=O)OC)=C(C(=O)OC)[C@@H]3Nc4ccccc4[C@]23C[C@H]1C(=O)OC
  -18%	-5%
Nc1ccc(/C=C/c2ccnc3ccccc23)cc1[N+](=O)[O-]
  14%	-7%
CCC(=O)Nc1ccc(S(=O)(=O)N2CCN(c3ccc(F)cc3)CC2)cc1
  -2%	-19%
Cc1cccc(NC(=O)CN2CCc3cc4c(cc3C2C)OCCCO4)c1 (stereo unspecified)
  -8%	-18%
N#CC1=CN(Cc2ccccc2)C=C(/C=N/Nc2ccccc2)C1
  -19%	-8%

Laid out differently: 4 of the compounds above
Compound: Cc1cc(C)c(S(=O)(=O)Cc2ccccc2)c(=O)[nH]1
  Vaccinia mCherry = -9%
  VACV Venus inh = -9%
Compound: COc1cc(/C=N/NC(=S)NC2CC3CC2C2C=CCC32)ccc1O (stereo unspecified)
  Vaccinia mCherry = -34%
  VACV Venus inh = ?
Compound: CCC12CN3CC(C)(CN(C1)C3c1c(C)n(C)c3ccccc13)C2=O (stereo unspecified)
  Vaccinia mCherry = -2%
  VACV Venus inh = 0%
Compound: CCCCN(C(=O)C1CC(=O)N(Cc2ccc(C)cc2)C1)c1c(N)n(CC(C)C)c(=O)[nH]c1=O (stereo unspecified)
  Vaccinia mCherry = -4%
  VACV Venus inh = -5%

The results go on.
Every second line gives: Vaccinia mCherry	VACV Venus inh
COCC(C)Nc1ncnc2c1cnn2-c1ccc(C)c(C)c1 (stereo unspecified)
  -6%	1%
COc1ccccc1NC(=O)Nc1ccc(-n2ccc(C(F)(F)F)n2)cc1
  i	-28%
CCCNC(=O)C(Cc1cccc(Cl)c1)NC(=O)c1ccccc1 (stereo unspecified)
  -12%	-24%
COc1ccc(-c2cc(C(=O)N(C)CC(=O)Nc3cccc(F)c3)c3ccccc3n2)cc1
  ?	?
Cc1cccc(C)c1OCc1nnc(SCC(=O)Nc2ccc(N3CCOCC3)cc2)o1
  -8%	-12%
COC(=O)NNC1=CC(=O)CC(C)(C)C1
  -3%	-13%
COc1ccc(N(CC(=O)NCc2ccccc2C)S(=O)(=O)c2ccccc2[N+](=O)[O-])c(OC)c1
  -15%	-10%
COc1ccc(OC)c(C2CC(=O)NC(SC)=C2C#N)c1 (stereo unspecified)
  i	-11%
COc1cccc(C2c3[nH]c4ccccc4c3C[C@H]3C(=O)N(c4ccccc4C(=O)NCCCN4CCOCC4)C(=O)N23)c1 (stereo partly specified)
  -17%	-7%
COc1ccc(C(=O)COC(=O)c2ccn(C)n2)cc1
  i	-14%
CCC1(c2ccc(F)cc2)NC(=O)N(CC(=O)N(CCC#N)c2ccccc2)C1=O (stereo unspecified)
  12%	-1%
Cc1ccc(C)c(NC(=S)N/N=C2/CCCCc3ccccc32)c1
  -1%	-24%
O=C(Nc1ccc2c(c1)OCO2)C1CCN(C(=O)c2ccc(Br)cc2)CC1
  i	-6%
Cc1ccc(C(C)C)c(OCC(=O)NCC2(N(C)C)CCCCC2)c1
  2%	-2%
COC(=O)c1ccc(/C(O)=C(\C#N)c2nc3ccccc3s2)cc1
  -13%	-3%

(more compounds)
Every second line gives: Vaccinia mCherry	VACV Venus inh
CCOc1ccc(C(=O)Nc2ccc3nn(-c4ccc(OC)c(Cl)c4)nc3c2)cc1
  -2%	-5%
CCCCC(=O)Nc1ccc2c(c1)oc1ccccc12
  -24%	-22%
CC(CCc1ccccc1)NC(=O)c1ccc(C(=O)NC(C)CCc2ccccc2)cc1 (stereo unspecified)
  -7%	-6%
CCOC(=O)c1c(C)n(C)c2ccc(OC(C)C(=O)OC)cc12 (stereo unspecified)
  -10%	-10%
CCCC(=O)N1CCCC(C(=O)c2ccc(OC)c(OC)c2)C1 (stereo unspecified)
  i	-2%
Cc1c(Br)c([N+](=O)[O-])nn1C(C)C(=O)Nc1ccc2c(c1)OCO2 (stereo unspecified)
  ?	-11%
CCOC(=O)c1ccc(NS(=O)(=O)c2c(C)nc3sccn3c2=O)cc1
  -11%	-14%
COc1ccc(C2/C=C\CN(CC(C)C)CC(=O)N2Cc2cccc(F)c2)cc1 (stereo unspecified)
  -5%	-15%
CN(C)c1ccc(-n2cc3c(=O)n(C)c(=O)n(C)c3c2)cc1
  ·	-28%
CC1CCC/C(=C\Nc2ccc(C(=O)O)cc2)C1=O (stereo unspecified)
  i	-5%
O=C(CCc1ccccc1)N/N=C\c1cc2c(cc1Br)OCO2
  -16%	-12%
CCOc1ccc(CN(Cc2ccco2)C(c2cccs2)c2nnnn2C(C)(C)C)cc1 (stereo unspecified)
  ·	-28%
CN(CC(=O)Nc1ccccc1Cl)C(=O)COC(=O)C1=COCCO1
  -14%	-8%
Oc1ccc(-n2nnnc2SCc2c(F)cccc2Cl)cc1
  -7%	-29%
Cc1ccccc1NC(=O)c1ccc(C)c(S(=O)(=O)Nc2cccnc2)c1
  -17%	-14%

(next part)
Every second line gives: Vaccinia mCherry	VACV Venus inh
Cc1ccc2nc(N(CCCN(C)C)C(=O)CS(=O)(=O)c3ccccc3)sc2c1
  -33%	-6%
COc1ccc(S(=O)(=O)N2CCCC(C(=O)NCC3CCCO3)C2)cc1Cl (stereo unspecified)
  i	-16%
C=CCn1c(=O)/c(=C2/SC(C)=C(C)N2CC)s/c1=C1/C(=O)N(CC)C(=S)N1c1ccccc1
  ·	-5%
CN(C)CCNc1cc(-c2ccncc2)nc2ccccc12
  i	-22%
O=[N+]([O-])c1cccc(-c2ccc(C(=S)N3CCN(c4ccc(F)cc4)CC3)o2)c1
  -11%	-8%
CCSC1=C(C#N)C(c2cccc(Br)c2)CC(=O)N1 (stereo unspecified)
  -16%	-10%
CCC(CC)C(=O)N1CCc2cc(OC)c(OC)cc2C1COc1ccccc1OC (stereo unspecified)
  8%	2%
Cc1ccccc1N(C)S(=O)(=O)c1nnc(NC(=O)c2ccccc2F)s1
  -4%	-5%

Random draw from the library; 0.82% or so of the library scored in one or more.
